D2 potentiator: human D2 receptor positive allosteric modulation; DiscoveRx D2 beta-arrestin cells, luminescence, 90 min; 100% = 57 uM dopamine signal; potentiation, % (test concentration not listed); 0.23% of 360,000 active; active = potentiation of 50% or more; inconclusive = 30% to 50%; inactive = 30% or less;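 note: compound concentration not given in the record; tested on top of an EC20 dose of dopamine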
Target sequence (P14416 whole entry, looked up): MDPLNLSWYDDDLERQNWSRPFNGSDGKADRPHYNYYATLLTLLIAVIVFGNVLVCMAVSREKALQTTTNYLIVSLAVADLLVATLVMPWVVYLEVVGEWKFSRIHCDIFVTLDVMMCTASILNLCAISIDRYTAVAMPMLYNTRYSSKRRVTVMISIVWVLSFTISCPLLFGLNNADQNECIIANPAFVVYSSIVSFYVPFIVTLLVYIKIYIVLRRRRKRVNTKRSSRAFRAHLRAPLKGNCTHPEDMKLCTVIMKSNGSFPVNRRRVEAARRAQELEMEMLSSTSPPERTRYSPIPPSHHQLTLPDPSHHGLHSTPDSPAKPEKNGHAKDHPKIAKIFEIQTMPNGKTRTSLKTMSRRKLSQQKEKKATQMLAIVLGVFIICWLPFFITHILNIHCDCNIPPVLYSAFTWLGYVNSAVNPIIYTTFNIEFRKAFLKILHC
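PathHunter D2 cells, attached overnight at 37 deg C, received compound in DMSO plus dopamine at EC20 (50 nM final) for 90 min at 37 deg C. Beta-arrestin recruitment was read as luminescence after 1 h with detection reagent at ambient temperature.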
CtBP-E1A inh: CtBP/E1A binding inhibition | AlphaScreen GST-E1A/His-CtBP binding, 1536-well; hits give low values; control for the full effect not named in the record | activity change, % (concentration not given with the values) | 0.49% of 340,000 active; in the data active means activity change below about -65%; inconclusive means about -30% to -65%; inactive means above about -30%; note: % is set by controls: 0 for no effect and ±100 for the full control effect
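Protein mix (5X: 125 nM each GST-E1A, His-CtBP) was incubated with pinned compound 2 h at 37 deg C in dark, in 50 mM Tris pH 8.0 buffer with 300 mM NaCl. Glutathione donor and nickel acceptor beads followed; AlphaScreen signal read after 1 h.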
gsp ag: gsp mutant agonism | Potency, µM (doses to about 76.9 µM), without a hit: at the top dose activation (cAMP increase), hits mostly activators | gsp mutant cells, cAMP HTRF, 30 min; control for the full effect not named in the record | 0.13% of 340,000 active; active = well fitted activation curve with a large enough effect; inconclusive = small, poorly fitted or top-dose-only effect, or another doubt; inactive = no such curve, though single readings can be large or run the other way; cell line not stated here;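 note: phosphodiesterase inhibitor Ro 20-1724 added with compounds to block cAMP breakdown; potency is the fitted concentration of half-maximal effect; nearly all actives have a fitted effect of over 60% in size; about a fifth of the inactives were tested at one dose only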
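Cells stably selected in G418 were plated at 2000/well, grown 16-24 hr, then given compounds in DMSO with the PDE inhibitor […] (300 uM solution added) for 30 min at 37C; cAMP was read by HTRF.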
Six1-Eya2 inh: blocks human Six1 binding to Eya2; AlphaScreen GST-Six1/His-Eya2 binding, biochemical; hits give low values; control for the full effect not named in the record; activity change, % (no concentration beside the values); 0.56% of 360,000 active; AID 651725; in the data active = activity change below about -65%; inconclusive = about -30% to -65%; inactive = above about -30%; note: % is set by controls: 0 for no effect and ±100 for the full control effect; compound concentration not given in the record
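AlphaScreen with GST-Six1 and His-Eya2 (5X mix: 250 nM and 500 nM), glutathione donor and nickel acceptor beads; buffer 50 mM Tris pH 8.0, 300 mM NaCl, 1 mM TCEP; 1 h at 37 C in the dark.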
D2 agonist: agonists of human D2 dopamine receptor (beta-arrestin); P14416; DiscoveRx PathHunter D2 beta-arrestin, luminescence, 90 min; 100% = 57 uM dopamine signal; activation, % (concentration not given with the values); 0.084% of 360,000 active; AID 624465; in the data active = activation above about 40%; inconclusive = about 15% to 40%; inactive = below about 15%; note: compound concentration not given in the record; the text of the record calls up to 30% inactive
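DiscoveRx PathHunter D2 beta-arrestin cells (2,100/well) attached overnight, then compound-stimulated 90 min at 37 C in HBSS/10 mM HEPES/0.1% Tween-20 buffer; beta-galactosidase complementation read by luminescence after 1 h at ambient temperature. Dopamine 57 uM final (EC100) as control.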
gsp antag: antagonists of gsp mutant (McCune-Albright syndrome); gsp-mutant cells, cAMP HTRF, 30 min; control for the full effect not named in the record; Potency, µM (highest dose often 76.9 µM), for inactives: at the top dose activity change, negative = inhibition, usual class: inhibitors; 0.4% of 340,000 active; AID 624288; active = falling curve of any shape with a large fitted effect; inconclusive = falling curve, mostly with a smaller effect; inactive = flat or rising curve; cell line not stated here;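 note: intracellular cAMP measured with PDE inhibitor Ro 20-1724 present during compound exposure; potency is the fitted concentration of half-maximal effect; % is set by controls: 0 for no effect and ±100 for the full control effect; nearly all actives have a fitted effect of over 65% in size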
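G418-selected cells were plated in DMEM/10% FBS for 16-24 h at 37C, then treated with compounds plus the PDE inhibitor […] (300 uM solution added) for 30 min at 37C. Intracellular cAMP was measured by HTRF after 30 min lysis at room temperature.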
The depositor's hits bear a star; ? = inconclusive; · = not tested or not shown; [ ] = another dose, or the depositor's remark.

No.	SMILES	D2 potentiator	CtBP-E1A inh	gsp ag	Six1-Eya2 inh	D2 agonist	gsp antag
1	O=C(/C=C/c1cccc(Cl)c1)c1nc2ccccc2[nH]1	-10	-1	-36%[inhibitor]	-2	-2.1	17%
2	COc1ccc(NC(=O)CSc2nn3c(=O)c(C)nnc3s2)cc1	5	-93*	?	-86*	3.3	3%
3	Cc1ccc(C(=O)NNC(=O)COc2ccc(Cl)cc2C)o1	-3	1	?	-4	1.5	10%
4	O=C1CNc2cc(Cl)ccc2N1	-9	-8	-6%	6	-4.0	·
5	CCOC(=O)c1c(NC(=O)CN2CCN(C)CC2)sc(C(=O)Nc2ccccc2)c1C	-5	-2	-5%[15.4 µM]	-3	6.6	-9%
6	S=c1[nH]nc(-c2cccs2)n1/N=C/c1cn(-c2ccccc2)nc1-c1cccs1	-17	-9	-3%[15.4 µM]	-16	-3.3	?
7	CCNS(=O)(=O)c1cc(OC)ccc1OC	4	4	-43%[inhibitor]	0	-2.1	5%
8	O=C(Nc1ccc(N2CCCC2)cc1)C(c1ccccc1)c1ccccc1	-7	-7	11%[15.4 µM]	-19	-1.8	-8%
9	Cc1ccnc(NC(=O)c2ccc(NS(=O)(=O)/C=C/c3ccccc3)cc2)c1	5	-18	-14%	-14	-2.0	10%
10	CCOc1ccc(C(=O)NCC(=O)N2CCC3(CC2)NCCc2[nH]cnc23)cc1	-7	-4	26%	-3	-3.8	16%
11	C=CCNCCCCOc1ccccc1-c1ccccc1	-17	8	1%[15.4 µM]	10	-1.6	14%
12	CCN(CC)c1ccc(/C=N/NC(=O)c2cc(C)nc3ccccc23)cc1	0	-8	7%[15.4 µM]	-26	1.6	-31%
13	COc1ccc(OC)c(NC(=O)C2CCN(c3cc(-c4ccccc4)nc4ncnn34)CC2)c1	-3	1	23%	1	-2.4	?
14	COc1ccc(NC(=O)C2CCN(C(=O)c3ccccc3)CC2)c(OC)c1	-8	-22	-49%	-2	0.7	7%
15	COc1ccccc1-c1noc2c1C(=O)N(Cc1cn(-c3ccc(Cl)cc3)nn1)CC2	-8	-12	·	?	1.9	·
16	COc1ccc(C=O)cc1COc1ccccc1F	-4	21	6%	15	-2.1	-14%
17	Brc1ccc(-c2noc(C3CCCCC3)n2)cc1	-9	13	-8%[15.4 µM]	-2	-2.0	6%
18	CCCNC(=O)NC(=O)CSc1nc2cc(C(=O)OC)ccc2c(=O)n1-c1ccccc1	-7	3	20%	1	-3.1	-18%[15.4 µM]
19	O=C(CC1C(=O)NCCN1C(=O)c1ccc([N+](=O)[O-])cc1)Nc1ccc(F)cc1 (centres undefined)	-1	-4	16%	-2	-0.7	9%
20	Cn1c(=O)c(Oc2ccc(Cl)cc2)c(O)c2ccccc21	5	·	18%	8	6.3	-18%

Record cards, as listed above:
COc1ccc(OC)c(NC(=O)C2CCN(c3cc(-c4ccccc4)nc4ncnn34)CC2)c1 in the list: D2 potentiator: -3; CtBP-E1A inh: 1; gsp ag: 23%; Six1-Eya2 inh: 1; D2 agonist: -2.4; gsp antag: ?
COc1ccc(C=O)cc1COc1ccccc1F in the list: D2 potentiator: -4; CtBP-E1A inh: 21; gsp ag: 6%; Six1-Eya2 inh: 15; D2 agonist: -2.1; gsp antag: -14%

More entries
No.	SMILES	D2 potentiator	CtBP-E1A inh	gsp ag	Six1-Eya2 inh	D2 agonist	gsp antag
21	CC(C)Cn1c(CCC(=O)O)ccc1-c1cccs1	-1	-1	-47%[inhibitor]	-3	-1.3	-14%
22	CCOc1ccc(C)cc1-n1nc2ccccc2n1	-2	14	9%	18	-3.3	-6%
23	COc1ccccc1C(=O)N/C(=C\c1ccc(Br)cc1)C(=O)NCCC(=O)O	-4	5	20%	-7	-2.3	4%
24	COc1ccc(C(c2nnnn2C2CCCCC2)N2CCN(c3ccc(OC)cc3)CC2)cc1 (centres undefined)	-21	?	22%	?	-3.5	-8%
25	Cc1nc(N2CCN(C(c3ccccc3)c3ccccc3)CC2)[nH]c(=O)c1C	9	5	-3%	5	0.5	-4%
26	O=C(COC(=O)c1ccc(O)cc1O)Nc1ncc(Cl)cc1Cl	9	5	2%	-6	4.8	9%
27	CC(=O)N1c2ccc(S(=O)(=O)N3CCC(C(=O)N4CCN(c5ccccc5F)CC4)CC3)cc2CC1C (centres undefined)	-5	-15	17%	0	11	?
28	Cc1ccc([N+](=O)[O-])cc1NC(=O)CSc1nncc2ccccc12	-10	·	6%	2	-2.0	-1%
29	O=C(c1ccc(F)c(S(=O)(=O)N2CCOCC2)c1)N1CCc2ccccc21	-1	-2	1%[15.4 µM]	-3	1.7	-2%
30	CCN1C(=O)[C@H]2[C@H]3CN=C(SCc4ccc(C(=O)OC)cc4)N3[C@@](C)(C(=O)OC)[C@H]2C1=O	-13	3	·	1	0.1	7%
31	COC(=O)c1c(NC(=O)C2CC2)sc2c1CCCC2	-4	3	-59%[inhibitor]	-9	-0.5	-14%
32	Cc1ccc(NC(=O)CCC(=O)c2cccs2)c(O)c1	-4	8	2%	6	0.0	6%
33	Cc1nn(C)c(Oc2ccc(Cl)cc2)c1C=O	-12	4	23%	6	-0.7	-14%
34	COC(=O)c1ccnc(SCC(=O)c2ccccc2)c1	-4	13	-55%[inhibitor]	5	3.5	0%
35	N#CC1=C(N)C(C#N)(C#N)[C@H](c2ccncc2)[C@H]2CC3(CC=C12)OCCO3	-21	4	-1%	-6	-2.6	6%
36	COc1ccc(CNC(=O)OC23CN(C(=O)OC(C)C)N(C(=O)OC(C)C)CC2(O)CN(S(=O)(=O)c2ccc(C)cc2)C3)cc1OC (centres undefined)	3	5	-24%	-1	-4.3	·
37	CS(=O)(=O)N(CC(=O)NCc1ccccn1)Cc1ccc(Cl)cc1	-20	3	-7%	-15	-2.4	12%
38	CN1CC[C@@H]2C(=O)N3CCc4ccc(Br)cc4[C@@H]3C[C@@H]21	-10	-12	·	-30	-0.6	2%
39	S=C(NCCc1ccccc1)N1CCCC1	-4	1	2%[15.4 µM]	5	-0.2	18%
40	COc1ccc(/C=C2\CCC(C3CCCC3)C2=O)cc1Cn1cccn1 (centres undefined)	-5	0	9%	2	1.4	-13%

Results in sequence from the list:
Compounds 24–35 in D2 potentiator read -21, 9, 9, -5, -10, -1, -13, -4, -4, -12, -4, -21
Compounds 24–35 in CtBP-E1A inh read ?, 5, 5, -15, ·, -2, 3, 3, 8, 4, 13, 4

Following part
No.	SMILES	D2 potentiator	CtBP-E1A inh	gsp ag	Six1-Eya2 inh	D2 agonist	gsp antag
41	O=C(c1ccccc1F)N1CCN(Cc2ccc3c(c2)OCO3)CC1	-16	-4	8%[15.4 µM]	-14	0.7	6%
42	NCCCC[C@H]1CNC(=O)C(=O)N1CCc1cccc2ccccc12	-1	·	12%	0	-3.0	11%
43	Cc1nn(CSc2c(F)c(F)c(F)c(F)c2F)c(C)c1[N+](=O)[O-]	4	·	-15%	-3	-4.4	-3%
44	CCOC(=O)c1c(NC(=O)Nc2ccccc2)sc(C)c1C	-30	0	-1%	-5	-0.1	-16%
45	CN1C(=O)C(=O)/C(=C(/O)c2ccccc2)C1c1ccc(Br)cc1 (centres undefined)	-13	·	-15%	-1	-4.1	-12%
46	CC(=O)NC(=C(Cl)Cl)S(=O)(=O)c1ccccc1	1	-14	1%[15.4 µM]	5	-1.6	5%
47	FC(F)(F)c1ccc(CN2C[C@@H]3C(c4ccc(C(F)(F)F)cc4)C4(c5cccnc5)CC3(C4)[C@H]2c2ccccc2)cc1 (some centres undefined)	-43	3	·	2	-0.6	-3%
48	O=C(O)CN1C(=O)NC2(CCCc3ccccc32)C1=O (centres undefined)	-6	3	-13%[15.4 µM]	7	-4.4	4%
49	C/C(=N\NC(=O)CSc1nc2ccccc2o1)c1cccc(O)c1	-11	·	-8%	-4	-1.1	-4%
50	CCOC(=O)Cc1csc(NC(=O)c2cc3c(s2)CCCC3)n1	-4	-6	?	0	2.0	-26%
51	O=C(OC(C(=O)Nc1cccc(C(F)(F)F)c1)c1ccccc1)C1CCCCC1 (centres undefined)	0	2	-17%	8	3.5	6%
52	O=C1CC2(CCN(C(=O)c3ccc(F)cc3)CC2)Oc2ccccc21	-15	8	11%[15.4 µM]	-3	-2.5	1%
53	CCOC(=O)C1(Cc2ccccc2)CCN(Cc2cnn(C(C)C)c2)CC1	-7	·	23%[15.4 µM]	15	1.0	18%
54	COc1ccc(Cl)cc1C(=O)OCC(=O)NC1CCCC(C)C1C (centres undefined)	-22	10	19%[15.4 µM]	-6	-8.0	-16%
55	O=C(c1ccccc1Cl)N1N=C(c2cccs2)CC1c1cccc(O)c1 (centres undefined)	-6	·	-8%	6	8.1	5%
56	CCCNC(=O)c1oc2ccc3c(c2c1C)C(=O)CC(C)(C)O3	9	3	20%	-3	-0.1	-3%

Reformatted with each value named: part of the list above.
16	COc1ccc(C=O)cc1COc1ccccc1F
  D2 potentiator: -4
  CtBP-E1A inh: 21
  gsp ag: 6%
  Six1-Eya2 inh: 15
  D2 agonist: -2.1
  gsp antag: -14%
17	Brc1ccc(-c2noc(C3CCCCC3)n2)cc1
  D2 potentiator: -9
  CtBP-E1A inh: 13
  gsp ag: -8%[15.4 µM]
  Six1-Eya2 inh: -2
  D2 agonist: -2.0
  gsp antag: 6%

A few values from the results shown:
Result for `O=C(c1ccc(F)c(S(=O)(=O)N2CCOCC2)c1)N1CCc2ccccc21` in Six1-Eya2 inh: -3
Result for `COC(=O)c1c(NC(=O)C2CC2)sc2c1CCCC2` in Six1-Eya2 inh: -9
Result for `CC(=O)N1c2ccc(S(=O)(=O)N3CCC(C(=O)N4CCN(c5ccccc5F)CC4)CC3)cc2CC1C` (centres undefined) in D2 agonist: 11
